# Screens deposited in PubChem BioAssay by National Center for Advancing Translational Sciences (NCATS).
# Pol iota inh = qHTS for Inhibitors of Polymerase Iota; Potency, µM (titrated, usually from 115 µM), inactives show at the top dose activity, negative = inhibition, usual class: inhibitors; AID 588590, 2011; 1% of 390,000 active; Pol iota fluorescent replication assay, 10 min
#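 Fluorescent replication assay read twice, at 0 min and 10 min after adding 50 nM (final) substrate. Enzyme (10 nM) and compounds were first incubated 15 min at room temperature; enzyme-free buffer wells were negative controls.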
# Anesthetic bind = qHTS Assay for Identification of Novel General Anesthetics | Ferritin light chain (Equus caballus), P02791 | apoferritin/1-aminoanthracene competitive binding, fluorescence | Potency, µM (titrated, usually from 77.5 µM), inactives show at the highest dose activity change, negative = displacement, most hits filed as inhibitors | 0.074% of 350,000 active | AID 485281, 2010; also: % is scaled to controls: 0 for no effect and ±100 for the full control effect; nearly all actives have a fitted effect of over 20% in size
# Target sequence (P02791 2-175 limits assumed): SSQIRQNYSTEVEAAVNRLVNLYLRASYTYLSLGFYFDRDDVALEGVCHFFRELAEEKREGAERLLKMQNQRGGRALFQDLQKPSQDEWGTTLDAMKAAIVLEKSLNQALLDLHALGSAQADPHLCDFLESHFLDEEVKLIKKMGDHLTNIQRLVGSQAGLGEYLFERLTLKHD
#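 Steps: apoferritin (10 uM) was premixed with half-saturated 1-AMA in PBS, compounds were pin-transferred, plates stood 10 min at room temperature, fluorescence was read at 380/535 nm, and curves were fitted with a Hill equation.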
# APE1 inh = qHTS Assay for Inhibitors of the Human Apurinic/apyrimidinic Endonuclease 1 (APE1); DNA repair nuclease/redox regulator APEX1 (Homo sapiens), P27695; recombinant APE1, TAMRA/BHQ-2 abasic DNA cleavage fluorescence; Potency, µM (highest dose often 65.8 µM), without a hit: top-dose activity change, negative = inhibition, most hits filed as inhibitors; 0.35% of 350,000 active;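 also: plate controls were vehicle for no effect and reference inhibitor for full effect; nearly all actives have a fitted effect of over 55% in size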
#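 Quantitative HTS: incision of a TAMRA/BHQ-2 double-stranded substrate bearing a tetrahydrofuran abasic site by 0.75 nM APE1 raises fluorescence. Substrate 50 nM final, added after 15 min compound preincubation at room temperature; progress as third-minus-first kinetic read difference.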
# POLK inh = qHTS for Inhibitors of Polymerase Kappa. DNA polymerase kappa (Homo sapiens), Q9UBT6. purified Pol kappa, fluorescent DNA synthesis assay, 10 min. Potency, µM (titrated, usually from 107 µM), inactives show at the highest dose activity, negative = inhibition, actives largely listed as inhibitors. 0.53% of 400,000 active. AID 588579, 2011; also: % is scaled to controls: 0 for no effect and ±100 for the full control effect
#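 Kinetic fluorescence readout at 0 and 10 min followed reaction start with substrate at 50 nM final. Beforehand, enzyme (10 nM Pol kappa) stood 15 min with compound at room temperature; buffer-only wells were negative controls.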
# POLB inh = qHTS Assay for Inhibitors of DNA Polymerase Beta | Pol beta primer extension/strand displacement, fluorescence kinetic | Potency, µM (highest dose often 114 µM), without a hit: at the highest dose activity change, negative = inhibition, most hits filed as inhibitors | 1.3% of 340,000 active | AID 485314, 2010; also: % is scaled to controls: 0 for no effect and ±100 for the full control effect
#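 Reaction started by 50 nM substrate onto compound-treated Pol beta (10 nM, 15 min preincubation, room temperature); plates read at 0 min and 10 min. Normalized concentration-effect data fitted by four-parameter Hill equation.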
# BLM helicase inh = qHTS Assay for Inhibitors of Bloom's syndrome helicase (BLM); RecQ-like DNA helicase BLM (Homo sapiens), P54132; recombinant BLM DNA unwinding, fluorescence dequenching; Potency, µM (doses to about 56.1 µM), for inactives: at the highest dose activity change, negative = inhibition, actives largely listed as inhibitors; 0.2% of 350,000 active; AID 2528, 2010;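 also: plate controls were vehicle for no effect and no enzyme for full effect; nearly all actives have a fitted effect of over 35% in size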
# PGK inhibitor = qHTS Assay to Find Inhibitors of Phosphoglycerate Kinase; 0.043% of 380,000 active; PGK/GAPDH coupled, Kinase-Glo luminescence, 60 min; Potency, µM (top dose mostly 57.5 µM), without a hit: at the highest dose activity change, negative = inhibition, most hits filed as inhibitors; also: % is scaled to controls: 0 for no effect and ±100 for the full control effect; nearly all actives have a fitted effect of over 60% in size
#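 Recombinant glycosomal PGK reaction used 1,3-bisphosphoglycerate generated in-well by GAPDH (100nM final) in 100mM TEA pH 7.6, 5mM MgCl2, 0.01% Tween-20. After 60 minutes at room temperature, ATP was read by Kinase-Glo Plus luminescence end-point.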
# Pol eta inh = qHTS for Inhibitors of Polymerase Eta; Potency, µM (series often up to 114 µM), for inactives: at the highest dose activity change, negative = inhibition, hits mostly inhibitors; 1.2% of 390,000 active; recombinant Pol eta, fluorescent DNA replication assay; DNA polymerase eta (Homo sapiens), Q9Y253; also: % is scaled to controls: 0 for no effect and ±100 for the full control effect
# Target sequence (Q9Y253 whole entry, looked up): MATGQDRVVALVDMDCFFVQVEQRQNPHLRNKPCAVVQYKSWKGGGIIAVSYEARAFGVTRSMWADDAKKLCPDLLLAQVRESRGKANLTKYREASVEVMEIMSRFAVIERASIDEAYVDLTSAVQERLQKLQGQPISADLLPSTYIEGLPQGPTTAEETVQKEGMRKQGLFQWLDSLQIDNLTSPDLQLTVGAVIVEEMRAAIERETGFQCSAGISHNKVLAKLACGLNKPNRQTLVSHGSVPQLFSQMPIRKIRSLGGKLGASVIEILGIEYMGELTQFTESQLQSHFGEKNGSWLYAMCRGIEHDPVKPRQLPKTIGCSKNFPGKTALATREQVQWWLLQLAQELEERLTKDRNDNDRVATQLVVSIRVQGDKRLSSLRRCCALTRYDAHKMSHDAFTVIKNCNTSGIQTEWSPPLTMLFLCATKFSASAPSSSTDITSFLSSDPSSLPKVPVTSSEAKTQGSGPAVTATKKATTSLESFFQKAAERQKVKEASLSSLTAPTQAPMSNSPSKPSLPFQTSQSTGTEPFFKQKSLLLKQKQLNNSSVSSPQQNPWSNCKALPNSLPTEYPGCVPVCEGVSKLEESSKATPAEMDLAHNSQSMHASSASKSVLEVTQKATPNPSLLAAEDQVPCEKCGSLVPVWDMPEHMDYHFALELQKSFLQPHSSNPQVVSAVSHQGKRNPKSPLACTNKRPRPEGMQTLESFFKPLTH
#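 Pol eta at 10 nM preincubated with compounds 15 min at room temperature; reaction started with fluorescent substrate (50 nM final) and read kinetically at 0 and 10 min.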
# * = called active by the depositor; i = inactive; ? = inconclusive; / = no result given; [ ] = remark or other dose. Calls follow the shape of the dose curve; as a rule, active = well fitted curve in the direction sought with a large enough effect; inconclusive = small, poorly fitted or top-dose-only effect, or another doubt; inactive = no such curve, though single readings can be large; an effect the other way counts as inactive or inconclusive. Potency is read from the fitted curve at half-maximal effect.
SMILES,Pol iota inh,Anesthetic bind,APE1 inh,POLK inh,POLB inh,BLM helicase inh,PGK inhibitor,Pol eta inh
CCOC(=O)c1c(NC(=O)C(C)N2CCN(S(=O)(=O)c3cccs3)CC2)sc2c1CCC(C)C2 (stereo not given),6%,-11%,-3%,-6%,44%,-6%,-8%,-12%
O=C(NC1CCCCC1)C1CCN(C(=O)c2ccccc2Cl)CC1,12%,3%,-1%[12.4 µM],-9%,57%,1%,2%,-5%
COc1cccc(N2CCN(Cc3cc(=O)oc4cc(C)ccc34)CC2)c1,26%,-4%,/,-4%,41%,-4%,-5%,2%
O=C(CSc1ncnc2c1sc1ccccc12)Nc1ccc(Br)cc1,?,-6%,0%,-6%,1%,1%,-7%,-4%
CC(=O)c1ccc(N(C(=O)c2csnn2)C(C(=O)NC2CCCC2)c2ccccc2)cc1 (stereo not given),-1%,7%,1%,-5%,16%,0%,-8%,-5%
O=C1OC(c2ccc(Cl)cc2)=N/C1=C\C=C\c1ccco1,?,-15%,?,?,28µM*,-1%,-8%,18%
Cc1ccc(N2C(N)=NC(N)=NC23CCCC3)c(C)c1,5%,-7%,-8%,-6%,7%,0%,-10%,-6%
Cc1ccc(C)c(-c2cc(C(=O)Nc3nccs3)c3ccccc3n2)c1,10%,-14%,7%,-7%,24%,-13%,i,4%
Cc1cc(N2C(=O)C(O)=C(C(=O)c3cc4ccccc4o3)C2c2ccc(OC(C)C)cc2)no1 (stereo not given),-19%,4%,3%,-22%,43%,-17%,-1%,-6%
CCOC(=O)c1csc(-c2sccc2Br)n1,37%,?,-1%,1%,?,-1%,-15%,-10%
Cc1cc(SCC(=O)NC2CCCC2)nc2ccccc12,-14%,-9%,0%,-8%,-2%,-4%,-3%,-5%
COc1ccccc1Cn1c(=S)[nH]c2ccc(F)cc2c1=O,28%,0%,1%,1%,6%,-4%,i,-12%
CCc1nc(SCC(=O)NCc2ccccc2)c2c(=O)n(C)c(=O)n(C)c2n1,0%,-1%,2%,-2%,1%,2%,3%,-1%
S=c1nc[nH]c2c1cnn2-c1ccccc1,16%,-6%,8%,-1%,34%[activator],-2%,-7%,-16%
Cn1ncc2nnn(-c3ccccc3)c(=O)c21,24%,-20%,15%,0%,7%,-1%,1%,0%
O=C(NC1CCCC1)C(c1ccncc1)N(C(=O)c1ccco1)c1ccccc1 (stereo not given),32%[activator],-6%,46%[activator],-1%,2%,7%,-2%,11%
Cc1cccc(NC(=O)c2sc3ncn(CC(=O)N4CCN(c5ccccn5)CC4)c(=O)c3c2C)c1,4%,-22%,-11%,2%,-3%,-4%,-6%,-20%
O=C1C(=O)N(Cc2cccnc2)C(c2cccc(Br)c2)/C1=C(/O)c1ccc2c(c1)OCO2 (stereo not given),-26%,-7%,64%[activator],-8%,?,1%,-1%,8%
O=c1c(Br)c(Br)cnn1-c1ccccc1,-7%,-18%,0%,4%,-9%,-10%,-1%,-4%
CC(NC(=O)Cc1cccs1)c1ccccc1 (stereo not given),56%[activator],-11%,5%,3%,0%,-3%,-1%,-16%
Cc1ccc(C(C)(C)C)cc1S(=O)(=O)Nc1nc2ccccc2nc1Cl,-8%,-7%,-12%,-6%,16%,-3%,-4%,-15%
Cc1ccc(N(C(=O)c2csnn2)C(C(=O)NC2CCCC2)c2ccccn2)cc1 (stereo not given),122%[activator],-10%,-3%,-2%,5%,-2%,5%,-24%
CCCNC(=O)c1cc(-c2ccccc2)c(N2CCCCC2)s1,4%,-2%,13%,0%,-20%,0%,-2%,-12%
O=C(CSc1nnc2c3c4c(sc3ncn12)CCCC4)NCc1ccco1,17%,-14%,-5%,-18%,-19%,-2%,0%,-7%
O=c1oc2ccc(Br)cc2cc1-c1csc(-c2ccccc2)n1,29%,-5%,/,-7%[60.1 µM],-2%,-1%,9%,-20%
COCCn1c(=NC(=O)CSCC(=O)N2CCOCC2)sc2ccccc21,30%,-5%,24%,7%,37%,-2%,-3%,-12%
COc1cc2[nH]c(=S)n(Cc3ccc(C)o3)c(=O)c2cc1OC,7%,-11%,-10%,-17%,-21%,-5%,-2%,-19%
Cc1ccc(-c2cnc(NC(=O)CCC(=O)N(C)Cc3ccccc3)n2C)cc1,14%,-8%,-2%,-4%,3%,2%,2%,-14%
Cc1cccc(NC(=O)Cn2nc(-c3ccc(Cl)cc3)c3ccccc3c2=O)c1,14%,18%,/,5%,17%,1%,11%,-11%
CCOC(=O)C(CCSC)NC(=O)CN (stereo not given),19%,-15%,1%,-24%,15%,3%,i,4%
CCOC(=O)c1ccc(NC(=O)c2c(NC(C)=O)sc3c2CCC(C)C3)cc1 (stereo not given),-5%,41%[activator],/,-7%,12%,-8%,-4%,-6%
C=CCn1c(=S)[nH]c2scc(-c3cccs3)c2c1=O,-16%,-6%,-3%,12%,-1%,-5%,-12%,-12%
Cc1cc(NC(=O)CSc2ncnc3sc(C)c(C)c23)no1,106%[activator],0%,14%,-16%,52%,-2%,1%,-21%
COc1ccc(NC(=O)CSc2ccc3nnc(-c4cccnc4)n3n2)c(OC)c1,185%[activator],-18%,-10%,-4%,-11%,-21%,7%,-20%
Cc1ccc(CCNC(=O)c2cc(Nc3ccc(C)c(C)c3)nc3ccccc23)cc1,-1%,278%[activator],/,-5%[60.1 µM],-8%,0%,-10%,-16%
Cn1c(-c2ccc3c(c2)OCO3)cnc1NCc1ccc(Cl)cc1,6%,?,1%,-5%,-29%,-2%,-7%,-18%
Cc1ccc(NC(=O)CS(=O)CC(=O)NC2CCN(Cc3ccccc3)CC2)c(C)c1 (stereo not given),-8%,-21%,1%,0%,-1%,-1%,0%,-4%
Cc1cc2nnc(SCC(=O)NCC3CCCO3)n2c2ccccc12 (stereo not given),61%[activator],-6%,-1%,-6%,14%,2%,i,-6%
COc1ccc(NC(=O)CSc2nnc(-c3cccs3)n2-c2ccccc2)cc1,11%,7%,0%,-1%,34%,-6%,-3%,-12%
CCC1(C)Cc2ccccc2-c2[nH]c(=S)[nH]c(=O)c21 (stereo not given),-10%,-10%,17%,-16%,1%,-5%,2%,-10%
Cc1ccc(C2C3=C(NCCN=C3c3ccccc3)C(=O)N2c2ccccc2)cc1 (stereo not given),10%,40%[activator],10%,-8%,18%,0%,-7%,7%
CC(C)c1c(O)nc(SCCC(=O)O)[nH]c1=O,4%,-7%,3%,-6%,14%,2%,-2%,-11%
O=C(OCC(=O)c1ccco1)c1ccc2ncsc2c1,0%,-6%,-4%,-3%,-23%,-2%,-2%,-1%
COc1cc(NC(=O)c2nc3ccccc3n(C)c2=O)cc(OC)c1OC,-4%,-9%,/,-14%,-13%,-5%,10%,-23%
CC(=O)Nc1cccc(NC(=O)c2sc3ncn(CC(=O)N4CCCCC4)c(=O)c3c2C)c1,-6%,-4%,0%,-9%,-4%,-10%,i,-16%
CCCOc1ccc(C2C(C(=O)c3cc4ccccc4o3)=C(O)C(=O)N2c2cc(C)on2)cc1 (stereo not given),9%,0%,-6%,11%,19%,-16%,0%,-17%
Cc1cc(C)c2nc(SCC(=O)NCC3CCCO3)c(C#N)cc2c1 (stereo not given),66%[activator],-4%,-1%,-7%,0%,-4%,4%,12%
CCOC(=O)N1CCN(C(=S)NC2CCCCC2)CC1,-12%,2%,2%,-20%,33%,3%,-5%,-7%
Cn1c(SCCOc2ccccc2Cl)nnc1-c1ccncc1,22%,1%,17%,-3%,18%,0%,/,-13%
COc1ccc(-n2c(-c3cccc(OC)c3)nc(=S)c3c2CCCC3)cc1,38%[activator],-17%,3%,-3%,-1%,-2%,/,-11%
CCOc1cc(-c2nc3ccccn3c2NCC2CCCO2)ccc1O (stereo not given),5%,12%,-3%,-2%,-10%,-3%,4%,1%
Cc1c(Cl)cccc1NC(=O)c1cc2nc(-c3ccc4c(c3)OCO4)cc(C(F)(F)F)n2n1,-5%,60%[activator],/,-2%,28%,-4%,5%,-15%
O=C1Nc2c(c(=O)[nH]c(=O)n2-c2ccccc2)C(C(F)(F)F)(C(F)(F)F)N1,-5%,2%,-6%,-1%,-21%,1%,-5%,1%
CCOC(=O)NCC(C)(C)CNC(=O)OCC,-4%,-1%,3%,-16%,1%,-9%,i,-12%
Cc1c(C(=O)c2ccccc2C(=O)O)sc2ccccc12,44%[activator],2%,-8%,9%,-2%,4%,0%,-22%
CSc1sc(C(=O)NNC(C)=O)c2c1C=CCC2,58%[activator],1%,5%,-10%,0%,-10%,-3%,27%

# 6 entries out of the list above, ordered by the value under POLK inh, ascending:
molecule | Pol iota inh | Anesthetic bind | APE1 inh | POLK inh | BLM helicase inh | PGK inhibitor | Pol eta inh
CCOC(=O)C(CCSC)NC(=O)CN (stereo not given) | 19% | -15% | 1% | -24% | 3% | i | 4%
CC(=O)Nc1cccc(NC(=O)c2sc3ncn(CC(=O)N4CCCCC4)c(=O)c3c2C)c1 | -6% | -4% | 0% | -9% | -10% | i | -16%
Cc1ccc(C)c(-c2cc(C(=O)Nc3nccs3)c3ccccc3n2)c1 | 10% | -14% | 7% | -7% | -13% | i | 4%
Cc1ccc(N2C(N)=NC(N)=NC23CCCC3)c(C)c1 | 5% | -7% | -8% | -6% | 0% | -10% | -6%
Cc1ccc(N(C(=O)c2csnn2)C(C(=O)NC2CCCC2)c2ccccn2)cc1 (stereo not given) | 122%[activator] | -10% | -3% | -2% | -2% | 5% | -24%
O=C(NC1CCCC1)C(c1ccncc1)N(C(=O)c1ccco1)c1ccccc1 (stereo not given) | 32%[activator] | -6% | 46%[activator] | -1% | 7% | -2% | 11%

# Compound profiles, as listed above. Order of screens: Pol iota inh	Anesthetic bind	APE1 inh	POLK inh	POLB inh	BLM helicase inh	PGK inhibitor	Pol eta inh
# Profile of O=C1Nc2c(c(=O)[nH]c(=O)n2-c2ccccc2)C(C(F)(F)F)(C(F)(F)F)N1 → -5%	2%	-6%	-1%	-21%	1%	-5%	1%
# Profile of CSc1sc(C(=O)NNC(C)=O)c2c1C=CCC2 → 58%[activator]	1%	5%	-10%	0%	-10%	-3%	27%

# The list is partial (hit frequency here may not be typical).
